NPYLR7 ag: agonists of mosquito NPYLR7 receptor, primary screen, cell-based, Aedes aegypti, calcium fluorescence, mosquito biting behavior; actives 0.15% (n = 270,000); HEK293T NPYLR7/Galpha15, GCaMP6s calcium fluorescence; activation, % at 10 µM; Aedes aegypti neuropeptide Y-like receptor 7 (NPYLR7); in the data active means activation above about 40%;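 further: 0% = vehicle and 100% = reference agonist at the receptor; some compounds past the cut are filed as inactive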
NPYLR7 ag max-min: also measured in NPYLR7 ag; calls as there; activation, %; measured here: Max-Min RFU normalised activation; some inactives read as strong as hits;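 span of the calcium signal over five minutes; 0% = vehicle and 100% = native peptide agonist; compound fluorescence can raise it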
* hit, by the source's call; & = joins results of further samples. Only part of the results is shown; the hit share may differ from the screen's.

SMILES	NPYLR7 ag	NPYLR7 ag max-min
COc1cccc(CC2(CO)CCCN(C(=O)Nc3ccc(SC)cc3)C2)c1 (configuration not stated)	-7	-9
Cn1nc(-c2cccc(NC(=O)Nc3ccccc3)c2)ccc1=O	-1	-3
CCC(C)NC(=O)C(C)NC(=O)C1C(C=C(C)C)C1(C)C (configuration not stated)	0	-1
CCn1c(C2CCNCC2)nn(CC2CCCS(=O)(=O)C2)c1=O (configuration not stated)	-1	-1
Cc1ccc(S(=O)(=O)N2CCN(CCNC(=O)C(=O)NCc3ccccc3)CC2)cc1	-4	-10
O=C(O)C1C2CCC(C2)C1C(=O)Nc1nc2ccccc2s1 (configuration not stated)	0	4
CC(C)NC(=O)C1(C)CCN1C(=O)c1ccccc1Oc1ccccc1 (configuration not stated)	-2	-5
C=CCCC(O)CN(Cc1ccco1)Cc1ccc(C)s1 (configuration not stated)	18	18
N=c1n(Cc2ccccc2Cl)c2ccccc2n1CC(O)c1ccco1 (configuration not stated)	-3	-4
CC1CN(C(=O)Nc2ccc(OCc3cccnc3)cc2)CC(C)O1 (configuration not stated)	14	6
O=C(CN1CCN(c2ncnc3ccsc23)CC1)NC1CC1	13	4
COC(=O)c1ccccc1NC(=O)c1nn(-c2ccccc2C)c(=O)cc1OC	5	4
CCNC(=O)CN(CC)C(=O)CCSc1ccccc1Br	13	9
O=C(NCc1ccccn1)C1CCCN(C2CCN(C(=O)c3ccon3)CC2)C1 (configuration not stated)	11	8
CCNC(=O)C1Cc2cc(C(F)(F)F)ccc2N2CCCCC12 (configuration not stated)	22	12
COc1ccc(F)c(CC2(CCC(=O)N(C)Cc3ccc4nccnc4c3)CCC(=O)N2)c1 (configuration not stated)	0	-3
COC(Cn1ccnc1-c1ccnc2ccccc12)c1cccs1 (configuration not stated)	-2	-4
COCC(=O)N1CCC(C(=O)NCc2ccccc2-c2ccccc2)CC1	6	6
O=C(C1CC2CCC1C2)N1CCN(c2ccc(C(F)(F)F)cn2)CC1 (configuration not stated)	11	3
FC(F)(F)c1ccnc(Oc2ccc(CN3CCCC3)cc2Cl)c1	7	3
COc1ccc(CN2CCN(Cc3cn(C)nc3-c3ccccc3)CC2CCO)c(C)c1C (configuration not stated)	4	0
O=C(O)c1ccc(CSc2nnc(-c3ccncc3)n2-c2cccc(Cl)c2)cc1	-4	-9
CCOc1ncccc1CN1CCC(C(=O)NCCc2ccc(F)cc2)CC1	-8	-11
CCN(CC(=O)Nc1cc(C)on1)CC(=O)NC1CCS(=O)(=O)C1 (configuration not stated)	-1	-2
COc1ccc(CNC(=O)CCC2CCCN(C(=O)c3cc(C(C)C)no3)C2)c(OC)c1 (configuration not stated)	2	-3
CCn1ncnc1C(C)NC(=O)c1cccc(NC(C)=O)c1 (configuration not stated)	-2	-2
COCC(=O)Nc1ccc(-n2nc(OC(C)C)nc2-c2ccccc2C)cc1	-8	-1
COc1cn(CC(=O)NCc2ccc(C)cc2)c(CSc2nnnn2C)cc1=O	-5	-11
C=C(C)Cn1c(SCC(=O)N/N=C\C(C)=C\c2ccccc2)nnc1-c1ccc(Br)cc1	-6	-15
O=C(NCCCn1ccnc1)c1nn2c(C(F)(F)F)cc(-c3ccco3)nc2c1Cl	-6	-11
O=C(Cc1ccsc1)Nc1nccs1	2	7
CCOc1nc(-c2cccc(F)c2)n(-c2ccc(NC(=O)c3cccc([N+](=O)[O-])c3)cc2)n1	-1	-1
CN(C)c1ccc(NC(=O)c2ccccc2Cl)cc1CN(Cc1ccc(F)cc1)C(=O)C1CC1	-14	-6
COc1ccc2sc(N(Cc3ccccc3)C(=O)C3CCCN3S(C)(=O)=O)nc2c1 (configuration not stated)	0	0
N#CCOc1cccc(NC(=O)c2cc(F)ccc2Br)c1	3	3
COc1ccccc1OCc1nc(CN(C(=O)c2cccs2)C(C)C)cs1	-3	6
O=S(=O)(Nc1cc(F)ccc1F)c1cc(Cl)cc(Cl)c1	5	6
O=C(CN1CCCc2ccccc21)N=Nc1c(O)[nH]c2ccc(Cl)cc12	7	1
CCOC(=O)[C@@H]1CN(S(=O)(=O)c2cccs2)[C@H]2c3ccccc3O[C@@H]12	2	6
CCc1cc(-c2cccc(C(C)N(C)C)c2)ccc1NC(C)=O (configuration not stated)	8	3
COC(=O)/C(C#N)=C\c1c(C)cc(C)c(COC(C)=O)c1C	-6	-16
CCCCCn1c(SCC#N)nc2cc(C(=O)NCC3CCCO3)ccc2c1=O (configuration not stated)	-7	-10
CCN(CC)c1ccc(CN(C(=O)CC(C)(C)C)C2CC2)c(OS(=O)(=O)c2ccc(NC(C)=O)cc2)c1	11	21
O=C(NCCNc1nc(-c2ccc(F)cc2)nc2ccccc12)c1cccc(F)c1	4	13
Cc1ccc(CNc2c3c(nc4ncnn24)CCC3)cc1Cl	-1	-4
Cc1c(N)cnn1CCC(C)C	-8	748
N#CCCN(CCC#N)CN1C(=O)C2CC=CCC2C1=O (configuration not stated)	1	31
COCCn1c(-c2ccccc2)nn(CN2CCN(c3ccc(C(C)=O)cc3)CC2)c1=S	8	12

For convenience, some entries already given.
SMILES	NPYLR7 ag	NPYLR7 ag max-min
COc1cn(CC(=O)NCc2ccc(C)cc2)c(CSc2nnnn2C)cc1=O	-5	-11
C=C(C)Cn1c(SCC(=O)N/N=C\C(C)=C\c2ccccc2)nnc1-c1ccc(Br)cc1	-6	-15
O=C(NCCCn1ccnc1)c1nn2c(C(F)(F)F)cc(-c3ccco3)nc2c1Cl	-6	-11
O=C(Cc1ccsc1)Nc1nccs1	2	7
CCOc1nc(-c2cccc(F)c2)n(-c2ccc(NC(=O)c3cccc([N+](=O)[O-])c3)cc2)n1	-1	-1
CN(C)c1ccc(NC(=O)c2ccccc2Cl)cc1CN(Cc1ccc(F)cc1)C(=O)C1CC1	-14	-6
COc1ccc2sc(N(Cc3ccccc3)C(=O)C3CCCN3S(C)(=O)=O)nc2c1 (configuration not stated)	0	0
N#CCOc1cccc(NC(=O)c2cc(F)ccc2Br)c1	3	3
COc1ccccc1OCc1nc(CN(C(=O)c2cccs2)C(C)C)cs1	-3	6
O=S(=O)(Nc1cc(F)ccc1F)c1cc(Cl)cc(Cl)c1	5	6
O=C(CN1CCCc2ccccc21)N=Nc1c(O)[nH]c2ccc(Cl)cc12	7	1
CCOC(=O)[C@@H]1CN(S(=O)(=O)c2cccs2)[C@H]2c3ccccc3O[C@@H]12	2	6
CCc1cc(-c2cccc(C(C)N(C)C)c2)ccc1NC(C)=O (configuration not stated)	8	3
COC(=O)/C(C#N)=C\c1c(C)cc(C)c(COC(C)=O)c1C	-6	-16
CCCCCn1c(SCC#N)nc2cc(C(=O)NCC3CCCO3)ccc2c1=O (configuration not stated)	-7	-10
CCN(CC)c1ccc(CN(C(=O)CC(C)(C)C)C2CC2)c(OS(=O)(=O)c2ccc(NC(C)=O)cc2)c1	11	21
O=C(NCCNc1nc(-c2ccc(F)cc2)nc2ccccc12)c1cccc(F)c1	4	13
Cc1ccc(CNc2c3c(nc4ncnn24)CCC3)cc1Cl	-1	-4
Cc1c(N)cnn1CCC(C)C	-8	748
N#CCCN(CCC#N)CN1C(=O)C2CC=CCC2C1=O (configuration not stated)	1	31
COCCn1c(-c2ccccc2)nn(CN2CCN(c3ccc(C(C)=O)cc3)CC2)c1=S	8	12

(next part)
SMILES	NPYLR7 ag	NPYLR7 ag max-min
CC(=O)c1ccc(C(=O)N2CCCC(CCC(=O)Nc3ccc(F)cc3C)C2)s1 (configuration not stated)	5	3
Cc1ccc(C(=O)N[C@@H]2C=C(C(=O)NCC(N)=O)C[C@@H](O)[C@@H]2O)cc1	-9	-14
COc1ccc2cc(C(C)C(=O)NCC3CCCO3)ccc2c1 (configuration not stated)	-2	-1
O=C(Nc1ccccc1N1CCOCC1)C1Cc2cc(Cl)ccc2O1 (configuration not stated)	-8	-11
CN1C(=O)C=C(Nc2ccc(OCCO)cc2)C1=O	3	9
COc1cccc(C(C)N(C)C(=O)COc2cccnc2)c1 (configuration not stated)	4	2
COc1ccc2c(NCc3ccccc3OC)c(C#N)cnc2c1	-2	-5
O=C(Nc1cnc2n1CCCC2)C1COCCN1 (configuration not stated)	0	2
CC(C)(C)N=C(NC(C)(C)C)C(C(Cl)=C(Cl)Cl)[N+](=O)[O-] (configuration not stated)	-10	-15
Cc1noc(C)c1CC(=O)N1CCC(CCC(=O)NCc2ccc(F)cc2)CC1	3	2
C=CCC1(O)C(C)C(c2cc(OC)ccc2OC)NC(c2cc(OC)ccc2OC)C1C (configuration not stated)	-3	-8
CCC(=O)N(Cc1ccc(OC)c(OCc2nc(CO)cs2)c1)C(C)C	23	27
CCOc1ccccc1C(=O)Nc1c2c(nn1C(C)(C)C)CS(=O)C2 (configuration not stated)	-1	-2
CCOc1cc(C=C(C#N)C(=O)NCC2CCCO2)cc(Cl)c1OC (configuration not stated)	1	2
CCOc1cccc(N2CCN(C(=O)c3cccs3)C(C)C2=O)c1 (configuration not stated)	-8	5
Cc1ccc(C(=O)NC(C)c2ccccn2)c(C)c1 (configuration not stated)	0	1
CCOc1cc2c(cc1NC(=O)CN1CCN(Cc3ccsc3)CC1)OC(C)C2 (configuration not stated)	3	1
CC1(C)C[C@H]2C[C@@H](O)[C@H](NCc3ccc(F)cc3)[C@]2(O)CO1	3	13
O=C(c1nccc2ccccc12)N1CCN(Cc2cccc(F)c2)CC1	8	10
CC(C)C1CN(C(=O)c2ccc(-n3cnnc3)cc2)CCC(=O)N1CC1CC1 (configuration not stated)	3	-12
CCc1cnc(C)nc1N(C)Cc1nc2ccsc2c(=O)[nH]1	-5	-6
COCCN(Cc1cccnc1)C(=O)C(c1cc(Br)cs1)N(C)C (configuration not stated)	-2	-7
Cc1cc(C)n(CCC(=O)NCCCn2nnc3ccccc32)c(=O)n1	-4	-6
CC(O)C(C)NCc1nc(-c2ccco2)no1 (configuration not stated)	14	11
CCC(C(=O)N(CC(=O)N1CCc2sccc2C1c1ccc(Cl)cc1Cl)C1CC1)c1ccccc1 (configuration not stated)	-1	1
O=C(Nc1cc(-c2ccccc2)nn1-c1ccccc1Cl)c1ccc(F)c(Cl)c1	24	11
CC(C)C1CCCCC1NC(=O)N1CCC(CC(N)=O)CC1 (configuration not stated)	8	4
Oc1[nH]c2ccc(Br)cc2c1N=Nc1ccc(C(F)(F)F)cn1	3	4
NC1=NC(c2cccc(Br)c2)n2c(nc3ccccc32)N1 (configuration not stated)	8&3	1&84
Cc1ccc(NC(=O)c2c(N)c(C(=O)c3ccc(C)c(C)c3)n3ccccc23)cc1	-4	-8
COC(=O)c1c(C)c(C(=O)C(C)N(C)C(=O)Nc2c(C(C)C)cccc2C(C)C)c(C)n1C (configuration not stated)	-7	1
Cc1cc(-c2nnc(NC(=O)c3ccc(Cc4ccccc4)cc3)o2)nn1C	-7	-15
COc1cn(CC(=O)Nc2ccc(NC(C)=O)cc2)c(CSc2nccc(C)n2)cc1=O	-4	-10
Cc1ccc(-n2nc3c(c2NC(=O)Cc2cccc4ccccc24)CS(=O)(=O)C3)c(C)c1	-1	-2
COc1cc(/C=C2/NC(=S)NC2=O)ccc1OCc1ccc(Cl)cc1Cl	-2	-8
NS(=O)(=O)NCC1CCCN(C(=O)COc2ccc(Br)cc2F)C1 (configuration not stated)	6	4
COCCN(CC(=O)N(Cc1ccccc1)Cc1ccco1)C(=O)NC1CCCCC1	-1	9
CCc1ccc(CN(C)C(=O)c2cc(COc3ccccc3)[nH]n2)nc1	1	26
CCCCN(C(=O)c1cc(F)c(F)c(F)c1F)c1c(N)n(CCC)c(=O)[nH]c1=O	12	10
COc1ccc(NC(=O)c2sc(=O)n(Cc3ccc(S(=O)(=O)N(C)C)cc3)c2C)cc1	8	4
CCCCCCCC(=O)NCc1ccc(-c2ncc(-c3ccc(OC)cc3)[nH]2)cc1	-3	-12
CCCS(=O)(=O)Nc1ccc(F)c(C(=O)c2c[nH]c3ncc(-c4ccc(Cl)cc4)cc23)c1F	-4	-10
O=C(CCCn1nnnc1CN1CCc2ccccc2C1)NC1CCOCC1	12	4
CC1CC(C)CN(C(=O)c2cc3c(=O)n4ccccc4nc3n2C)C1 (configuration not stated)	-2	-5
Cn1ncc(Cl)c1C(=O)NC1CC(=O)N(Cc2cccc3ccccc23)C1 (configuration not stated)	6	3
CCCn1c(=NC(=O)C2=COCCO2)sc2cc(Cl)ccc21	0	-1
Cc1nc(SCC(=O)NC(=O)NC(C)(C)C)c2c(C)c(C)sc2n1	-1	-1
CCCCCCCC(=O)N(Cc1ccc(F)cc1)C(C)C(=O)c1c(C)c(C(=O)OC)n(C)c1C (configuration not stated)	17	29
Oc1c(Cl)c(Cl)c2c(c1Cl)CC(Nc1ccccn1)O2 (configuration not stated)	-5	-8
N#CCOC(=O)C1CCCN1S(=O)(=O)c1ccc(Cl)s1 (configuration not stated)	9	5
Nc1sc2c(c1C(=O)c1cccs1)CCCC2	-8	-9
C=CCN=C1NN=C(c2ccc(Cl)cc2)C(C)S1 (configuration not stated)	3	2
CS(=O)(=O)c1ccc(C(=O)NNC(=O)C2(c3ccccc3)CC2)cc1	-1	-2
Cc1nc(Cl)cc(Oc2ccccc2OCC(F)(F)F)n1	1	-2
CC(C)C1CN(S(=O)(=O)c2cn(C)cn2)CCCN1CC1CC1 (configuration not stated)	9	8
CC1(C(=O)NS(=O)(=O)c2cccc(Cl)c2)CCN1C(=O)Cc1ccsc1 (configuration not stated)	1	-1
O=C(NC(=S)NC1CCCCC1)c1ccco1	-5	-6
CSc1nc(Cl)cc2nnnn12	-2	-3
C=CCOC1C[C@](OCc2ccccc2)(C(=O)NCCOC)C[C@H]2OC(C)(C)O[C@@H]12 (some centres not stated)	6	16
CCOCCCN(CC(=O)N(Cc1cccn1Cc1ccccc1)C1CCCCC1)S(=O)(=O)c1cccc(C(F)(F)F)c1	1	11
CCOC(=O)CSc1nc2c(c(=O)[nH]1)C1(CCCC1)Cc1ccccc1-2	-9	-15
